# Compound activity as filed in PubChem.
# GIV-Gai inh – GIV-Galpha-i interaction inhibition; P08753; Galpha-i3/FITC-GIV peptide fluorescence polarization, 90 min; stronger effect = lower value; scaled: aluminum fluoride 0%, vehicle 100%; percent of control (FP), % (test concentration not listed); 210,000 compounds, 0.42% hits;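 active = replicate mean at 85% of control or lower, very high polarization wells dropped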;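 note: wells of about 15 µL received 100 nL stock; the first replicate is given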
# Target sequence (P08753 whole entry, looked up): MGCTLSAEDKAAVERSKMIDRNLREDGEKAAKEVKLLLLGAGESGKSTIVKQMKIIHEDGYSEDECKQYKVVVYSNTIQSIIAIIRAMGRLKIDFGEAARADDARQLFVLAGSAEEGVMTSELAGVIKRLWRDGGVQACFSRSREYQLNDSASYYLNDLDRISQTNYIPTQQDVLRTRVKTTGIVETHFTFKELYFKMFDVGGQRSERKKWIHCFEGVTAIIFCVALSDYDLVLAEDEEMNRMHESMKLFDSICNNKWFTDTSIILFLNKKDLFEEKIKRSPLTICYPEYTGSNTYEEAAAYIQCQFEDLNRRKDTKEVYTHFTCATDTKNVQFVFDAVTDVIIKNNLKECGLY
# Sa growth inh – S. aureus growth inhibition; S. aureus RN4220 growth, OD600, 20 h, 42 °C; stronger effect = lower value; relative growth, % (no concentration beside the values); 170,000 compounds, 0.53% hits;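 active = growth at 42 °C up to 50% and 20 or more points under that at 30 °C, or under 10% at both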;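 note: 300 nL library stock went into each well; scaled to the means of positive and negative controls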
# HCMV UL50-53 inh – inhibitors of HCMV UL50-UL53 nuclear egress complex interaction; HTRF UL50-UL53 interaction, normalized percent inhibition; 190,000 compounds, 0.15% hits; inhibition, % (concentration not given with the values);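 active = both replicates at 50% or more, plus weaker picks with an unusually low signal ratio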;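 note: stock transfer was 100 nL into about 20 µL; 0% = negative control wells and 100% = wells with untagged competitor protein; inactives centre near -12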
# Sa growth inh second temp – further read-out of Sa growth inh, marked with its call; relative growth, %; measured here: growth at 30 °C;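 optical density after 20 h as mean of two plates; 100% = untreated growth and lower means inhibition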
# The depositor's hits bear a star; nt = no result given; & = joins results of further samples.
(1) CSc1nnc(CCNS(=O)(=O)c2ccc(Br)cc2)n1C
(2) CCOC(=O)Nc1cc(C)ccc1OC
(3) N/C(=N\O)c1ccc(O)cc1
(4) CCc1ccc(C2c3cccn3-c3c(c(C)nn3-c3ccccc3)CN2C(=O)Nc2ccc3c(c2)OCO3)cc1 (stereo not given)
(5) Cn1c(=O)c2sccc2n2c(CCC(=O)NC3CCCCC3)nnc12
(6) c1ccc(CN2CCN(c3nccn4nc(-c5ccccc5)cc34)CC2)cc1

entry no.	1	2	3	4	5	6
GIV-Gai inh	104	112	nt	107	96	102
Sa growth inh	104	95	99	nt	nt	nt
Sa growth inh second temp	89	105	92	nt	nt	nt
HCMV UL50-53 inh	3	-3	-24	8	-11	-2

(7) Fc1ccc(-c2nnc(CN3CCCC3c3nc4ccccc4s3)o2)cc1 (stereo not given)
(8) CCSCCOC(=O)C1=C(C)NC(=O)NC1c1ccc(OCc2ccccc2)cc1 (stereo not given)
(9) CNC(=S)N1N=C(c2ccc(OC)cc2)CC1c1ccc(N(C)C)cc1 (stereo not given)
(10) O=C(Nc1cccc2c1C(=O)NC2=O)c1ccc(S(=O)(=O)N2CCOCC2)cc1
(11) O=C(Nc1ccc(Cl)c(C(F)(F)F)c1)C(Cc1ccccc1)NS(=O)(=O)c1cccc2nsnc12 (stereo not given)
(12) COc1ccc(NC(=O)C(Cc2ccccc2)n2cccc2)cc1OC (stereo not given)

entry no.	7	8	9	10	11	12
GIV-Gai inh	nt	107	105	nt	107	101
Sa growth inh	115	nt	nt	114	103	108
Sa growth inh second temp	70	nt	nt	97	102	82
HCMV UL50-53 inh	-27	10	-29	0	-28	-15

(13) COc1ccc(Cn2c(=O)[nH]c3cc(C(=O)O)ccc3c2=O)cc1
(14) COc1ccc(CCNC(C)=O)cc1
(15) O=C(O)C1Cc2ccccc2CN1C(=O)COc1ccc(Cl)cc1Cl (stereo not given)
(16) CC(C)(CC(=O)O)Cc1nc(-c2ccc(Cl)cc2)no1
(17) O=C(O)CSc1ccc2nnc(-c3ccc(F)cc3)n2n1
(18) O=c1[nH]c(=S)[nH]c2c1C(C1CCCCC1)Cc1ccccc1-2 (stereo not given)

entry no.	13	14	15	16	17	18
GIV-Gai inh	110	102	nt	107	106	nt
Sa growth inh	92	112	139	129	103	94
Sa growth inh second temp	97	75	83	92	91	74
HCMV UL50-53 inh	3	-3	-12	-1	nt	-14

# In another format: entries from further up
# Second line of a record: GIV-Gai inh	Sa growth inh	Sa growth inh second temp	HCMV UL50-53 inh
16) CC(C)(CC(=O)O)Cc1nc(-c2ccc(Cl)cc2)no1
  107	129	92	-1
17) O=C(O)CSc1ccc2nnc(-c3ccc(F)cc3)n2n1
  106	103	91	nt

# Following part:
(19) O=C(OCc1cc(=O)n2c(n1)sc1ccccc12)C1=NN(c2ccccc2)C(=O)CC1
(20) CC(=O)NCCc1ccc(S(=O)(=O)N2CCCCC2)cc1
(21) N#Cc1nc(-c2ccc(S(=O)(=O)N3CCOCC3)cc2)oc1NC1CC1
(22) CN=C1S/C(=C\c2sccc2C)C(=O)N1C
(23) CC1=C(c2ccc(F)cc2)S(=O)(=O)NC1=NCc1ccccc1Cl
(24) O=C(NCc1ccccc1Cl)C1CCN(C(=O)c2sccc2-n2cccc2)CC1

entry no.	19	20	21	22	23	24
GIV-Gai inh	nt	101	98	nt	106	103
Sa growth inh	87	95	nt	107	97	nt
Sa growth inh second temp	96	90	nt	84	99	nt
HCMV UL50-53 inh	-31	nt	-11	-31	nt	0

# 5 records drawn at random from the list so far, as already listed:
(20) CC(=O)NCCc1ccc(S(=O)(=O)N2CCCCC2)cc1
(21) N#Cc1nc(-c2ccc(S(=O)(=O)N3CCOCC3)cc2)oc1NC1CC1
(23) CC1=C(c2ccc(F)cc2)S(=O)(=O)NC1=NCc1ccccc1Cl
(22) CN=C1S/C(=C\c2sccc2C)C(=O)N1C
(24) O=C(NCc1ccccc1Cl)C1CCN(C(=O)c2sccc2-n2cccc2)CC1

entry no.	20	21	23	22	24
GIV-Gai inh	101	98	106	nt	103
Sa growth inh	95	nt	97	107	nt
Sa growth inh second temp	90	nt	99	84	nt
HCMV UL50-53 inh	nt	-11	nt	-31	0

# Next part:
(25) CC(=O)N1c2ccc(S(=O)(=O)NC(CC(=O)O)c3ccccc3)cc2CC1C (stereo not given)
(26) CCOC(=O)CNC(=O)NCCn1c(-c2ccc(F)cc2)nc2ccccc21
(27) CC(OC(=O)c1ccc(-n2cnnn2)cc1)C(=O)NC1CCCc2ccccc21 (stereo not given)
(28) COC(=O)c1ccc(NS(C)(=O)=O)cc1
(29) CC(O)c1ccc(-c2ccc(CNCC3CCNCC3)o2)cc1 (stereo not given)
(30) CCOn1c(=O)c(=O)n(OC)c2ccccc21

entry no.	25	26	27	28	29	30
GIV-Gai inh	103	103	nt	103	107	104
Sa growth inh	106	nt	56	88	nt	83
Sa growth inh second temp	92	nt	89	85	nt	79
HCMV UL50-53 inh	-30	-6	-13	-19	-21	nt

(31) CCOc1ccc(S(=O)(=O)N(C)CC(=O)NCc2ccco2)cc1Cl
(32) CCn1c(C)nc2cc(C#N)ccc21
(33) COc1ccc(S(=O)(=O)N(C)c2ccc(C(=O)N3CCCCC3)cc2)cc1
(34) CC(COc1ccc2c(c1)OCO2)NC(=O)c1cn(-c2ccc(F)cc2)nn1 (stereo not given)
(35) Cc1ccc(-c2cc3c(SCC(=O)Nc4c(C)cc(C)cc4C)nccn3n2)cc1
(36) CCOCC(=O)Nc1cccc(-c2nc3cccnc3s2)c1

entry no.	31	32	33	34	35	36
GIV-Gai inh	106	nt	100	102	97	106
Sa growth inh	91	86	108	76	nt	88
Sa growth inh second temp	75	93	91	79	nt	57
HCMV UL50-53 inh	3	3	-11	-25	-25	-74

(37) CC(=O)c1nnn(-c2ccc(C)cc2Cl)c1C
(38) O=C(OCc1cc(=O)n2c3c(sc2n1)CCCC3)C1CSC2(c3ccc(F)cc3)CCC(=O)N12 (stereo not given)
(39) CC1=CC(C)C2COC(c3ccc4c(c3)OCO4)C1C2C (stereo not given)
(40) CCC(=O)Nc1ccc(C(=O)COc2ccc(OC)cc2)cc1
(41) COc1ccc(C(=O)CN2CCN(CCN3C(=O)c4cccc5cccc(c45)C3=O)CC2)cc1
(42) O=C(COc1cccc(-n2cnnn2)c1)NC1CCCCC1

entry no.	37	38	39	40	41	42
GIV-Gai inh	109	nt	99	nt	103	101
Sa growth inh	112	114	108	100	nt	99
Sa growth inh second temp	98	68	64	81	nt	79
HCMV UL50-53 inh	nt	-4	-4	-37	-84	-5

(43) N#Cc1ccc(CSc2ccccn2)c(Cl)c1
(44) c1ccc2c(-n3cccn3)cccc2c1
(45) Cc1oc(C)c2c(=O)cc(-c3ccc4c(c3)OCO4)cc(OC(=O)c3ccccc3)c12
(46) Cc1ccc(C(=O)c2oc3ccccc3c2NC(=O)c2cc(-c3ccc(Cl)cc3)on2)cc1
(47) CCCN1CCN(CCCNC(=O)c2cc3c(-c4ccc(OC)c(OC)c4)nn(C)c3s2)CC1
(48) Cc1ccccc1N1C(=O)c2ccccc2NC1(C)CC(=O)NCc1ccccc1 (stereo not given)

entry no.	43	44	45	46	47	48
GIV-Gai inh	nt	102	117	105	98	nt
Sa growth inh	104	77	nt	103	131	101
Sa growth inh second temp	88	88	nt	92	93	90
HCMV UL50-53 inh	-13	-40	-41	-6	3	-5

(49) O=C(c1ccc2c(c1)N(Cc1ccc(F)cc1)C(=O)/C(=C/c1ccccc1)S2)N1CCCC1
(50) N#C/C=C(\Sc1nnc(C2CCCCC2)n1N)c1ccccc1
(51) CN(C)c1nc(N2CCOCC2)nc(N2CCOCC2)n1
(52) CN(C)c1ccc2c3c(ccc(N(C)C)c13)C(=O)OC2
(53) CCC(=O)Nc1ccc(C(=O)Cn2nc(C(=O)O)c3ccccc3c2=O)cc1
(54) FC(F)(F)c1nc(NNC(=S)NCC2CCCO2)c2ccccc2n1 (stereo not given)

entry no.	49	50	51	52	53	54
GIV-Gai inh	102	nt	104	105	nt	nt
Sa growth inh	111	100	89	111	65	56
Sa growth inh second temp	68	96	91	82	84	51
HCMV UL50-53 inh	nt	-2	-14	nt	-30	-8

(55) COc1nnc(OC)c2ccccc12
(56) COC(=O)c1ccccc1NC(=O)c1ccc2c(c1)CCN2S(C)(=O)=O
(57) COc1cccc2cc(-c3nc(-c4ccc(Cl)cc4)cs3)c(=O)oc12
(58) Cc1c(C(=O)N2CCCCCC2)c(S(=O)(=O)Nc2ccc(OC(F)(F)F)cc2)c(C)n1C
(59) CN1C(=O)c2c(nc[nH]c2=O)C12CCCC2
(60) COc1ccc(CCNC(=O)c2sc3ccccc3c2Cl)cc1

entry no.	55	56	57	58	59	60
GIV-Gai inh	97	108&98	108	106	nt	105
Sa growth inh	nt	86	135	120	81	nt
Sa growth inh second temp	nt	94	89	77	97	nt
HCMV UL50-53 inh	-21	23&-13	nt	nt	3	-11

(61) CCCS(=O)(=O)NCCc1cc2c(OC)ccc(OC)c2[nH]c1=O
(62) Cc1ccc(NC(=O)CSC(C)C(=O)N2CCC(C)CC2)cc1 (stereo not given)
(63) O=S(=O)(Nc1ccc(O)c(Sc2nc3ccccc3s2)c1)c1cc(Cl)ccc1Cl
(64) COc1ccc(-c2nn(C)c3sc(C(=O)Nc4cc(OC)c(OC)c(OC)c4)cc23)cc1OC
(65) Cc1ccc(NC(=O)c2cc(-c3cccs3)on2)cc1
(66) Cc1cc(Br)ccc1NC(=O)c1cn(C2CCCC2)c(=O)c2c1c1ccccc1n2C

entry no.	61	62	63	64	65	66
GIV-Gai inh	102	nt	107	107	101	102
Sa growth inh	100	96	96	105	97	115
Sa growth inh second temp	78	92	96	87	86	88
HCMV UL50-53 inh	-8	-27	-31	-30	2	41

(67) CN1CCN(C(=O)c2ccc3c(c2)N(Cc2ccccc2F)C(=O)c2ccccc2S3=O)CC1 (stereo not given)
(68) COc1ccc(C(=O)c2c(N)c(-c3nc(-c4ccccc4)cs3)c3ccccn23)cc1
(69) CCC(Oc1ccc(F)cc1)C(=O)Nc1cc(-c2ccc(C)cc2)no1 (stereo not given)
(70) CC(C)(Oc1ccc(Cl)cc1)C(=O)NC1CCCCNC1=O (stereo not given)
(71) Cc1ccc(-c2cn3c(n2)sc2cc(C(=O)NCCC4=CCCCC4)ccc23)c(C)c1
(72) Cc1cc(C)cc(N2C(=O)N(Cc3cccc(F)c3)c3ccccc3S2(=O)=O)c1

entry no.	67	68	69	70	71	72
GIV-Gai inh	106	97	101	101	114	102
Sa growth inh	101	86	100	99	97	133
Sa growth inh second temp	80	90	73	94	91	101
HCMV UL50-53 inh	-16	-12	-16	-2	nt	nt

(73) CCCCn1c(=O)n(CC(=O)Nc2ccccc2F)c(=O)c2c1ncn2Cc1ccco1
(74) Cc1ccc(C)n1-c1ccc(C(=O)N(C)Cc2nc3ccccc3c(=O)[nH]2)cc1
(75) Cn1cccc1C1CCCN1CC(=O)Nc1ccccc1C(=O)Nc1ccccc1 (stereo not given)
(76) CCOC(=O)c1ccc(CN(Cc2ccc(Br)cc2)S(=O)(=O)c2cccc(Cl)c2C)cc1
(77) O=C(Cn1ncc2c3ccccc3n(Cc3ccccc3F)c2c1=O)NCc1cccs1
(78) CNc1nsc(C(=O)c2ccc(OC)cc2)c1N

entry no.	73	74	75	76	77	78
GIV-Gai inh	nt	nt	nt	103	100	107
Sa growth inh	93	125	107	104	88	72
Sa growth inh second temp	81	113	97	85	83	75
HCMV UL50-53 inh	3	13	0	nt	0	-57

(79) CCc1cccc(NC(=O)CSCCc2ccccn2)c1
(80) COc1ccc(C(O)(c2ccccc2)C2CC2)cc1 (stereo not given)
(81) Cc1cc(C)n(CCCNC(=O)c2ccc(NS(=O)(=O)c3cc(Cl)sc3Cl)cc2)n1
(82) CCOC(=O)c1c(NC(=O)COc2ccc(Cl)cc2C)sc(C(C)=O)c1C
(83) Cn1ccnc1SC(=O)N1c2ccccc2Sc2ccccc21
(84) C=CCSc1nc2nc3c(cn2n1)C(=O)CCC3

entry no.	79	80	81	82	83	84
GIV-Gai inh	100	92	nt	106	99	103
Sa growth inh	85	102	96	103	118	nt
Sa growth inh second temp	84	95	92	82	70	nt
HCMV UL50-53 inh	-1	-154	-33	-54	-2	-5

(85) COc1ccc(Br)c2c1-c1nc(NC(=O)c3cccc(C)c3)sc1C2
(86) S=C(Nc1ccc(Cl)c(Cl)c1)NC1CCCC1
(87) Cc1ccc(Nc2nc(C)cs2)cc1
(88) CC1=C(c2ccc(F)cc2)S(=O)(=O)N(CC(=O)Nc2c(C)cc(C)cc2C)C1=O
(89) CC(=O)NCCC(=O)Nc1cccc(C#N)c1
(90) Cc1cc(Nc2ccc(C)c(Cl)c2)n2nc(Cc3ccccc3)nc2n1

entry no.	85	86	87	88	89	90
GIV-Gai inh	109	98	107	97	nt	107
Sa growth inh	91	1.3*	84	nt	94	75
Sa growth inh second temp	79	0.6*	77	nt	92	47
HCMV UL50-53 inh	-32	-7	-4	-28	-11	-18

(91) O=C(CN1CCN(Cc2ccccc2)C1=O)NCCN1CCOCC1
(92) Cc1ccc(C(=O)c2oc3ccccc3c2NC(=O)C(C)C)cc1
(93) CCN1CCC(N(Cc2cccc(OC)c2)C(=O)Nc2cccc(C(F)(F)F)c2)CC1
(94) CC(C(=O)NC1CCCCCC1)C1Sc2ccccc2N(Cc2ccc(F)cc2)C1=O (stereo not given)
(95) CSc1ccc(C2c3[nH]c4ccccc4c3CCN2C(=O)CCc2ccccc2)cc1 (stereo not given)

entry no.	91	92	93	94	95
GIV-Gai inh	108	103	102	106	103
Sa growth inh	101	92	96	105	99
Sa growth inh second temp	96	79	87	92	91
HCMV UL50-53 inh	-1	nt	nt	nt	nt
